# UUG fidelity = modulators of start codon recognition fidelity in yeast; S. cerevisiae UUG-firefly luciferase reporter, luminescence/redox ratio; activity score, % at 18.7 µM; 0.13% of 350,000 active; AID 602363;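 active = replicate mean at a twofold rise or more, about +100% in these data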;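 note: firefly luciferase made from a UUG start codon reports start codon fidelity; reporter light over untreated wells divided by growth signal over untreated wells; some hits fall short of that in this replicate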
# HIV Env fusion = blocks HIV Env-driven cell-cell fusion; AID 651610; HeLa-JRFL Env/CEM21 cell fusion, luciferase; 1.1% of 360,000 active; inhibition, % at 12.3 µM;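 active = mean replicate inhibition score of at least 50 and every replicate individually at or above 50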;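 note: 0% = plate neutral controls and 100% = maraviroc near 300 nM; one replicate is shown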
# Starred values were filed as active, the others as inactive; [ ] = remark or other dose.
# Screens in order: UUG fidelity | HIV Env fusion
Cc1noc(C)c1S(=O)(=O)Nc1ccc2c(c1)C(=O)N([C@H](C)CO)C[C@H](C)[C@H](CN(C)S(=O)(=O)c1ccccc1)OCCCC[C@H](C)O2
    -11 | -106[16.7 µM]
O=C1CSC(c2ccccc2)N1c1ccc(-c2ccccc2)cc1 (configuration not stated)
    -16 | -37[16.7 µM]
C[C@@H]1CN([C@H](C)CO)S(=O)(=O)c2ccc(C#Cc3ccccc3)cc2O[C@H]1CN(C)C(=O)CN(C)C
    13 | 19[16.7 µM]
CCc1csc(N2[C@H](C#N)[C@@H](c3ccc(-c4ccc(F)cc4)cc3)[C@H]2CO)n1
    -10 | -11[16.7 µM]
COc1cccc(S(=O)(=O)N[C@@H]2CC[C@@H](CC(=O)NC3Cc4ccccc4C3)O[C@@H]2CO)c1
    7 | 8[16.7 µM]
CCCNC(=O)[C@@]1(Sc2ccc(C)cc2)CC(=O)N(C2CCCCC2)[C@@H]1c1ccc(CO)cc1I
    23 | 11[16.7 µM]
CC(=O)N(C)C[C@H]1Oc2ncc(-c3cccnc3)cc2C(=O)N([C@H](C)CO)C[C@H]1C
    -9 | 2[16.7 µM]
C[C@H]1CN([C@@H](C)CO)C(=O)c2cc(NS(=O)(=O)c3cn(C)cn3)ccc2O[C@@H]1CN(C)C(=O)Nc1ccc(C(F)(F)F)cc1
    -6 | 7[16.7 µM]
CNC[C@@H]1OCCCC[C@@H](C)Oc2ccc(NC(=O)Nc3ccc(C(F)(F)F)cc3)cc2C(=O)N([C@@H](C)CO)C[C@H]1C
    8 | -17[16.7 µM]
C[C@H](CO)N1C[C@H](C)[C@@H](CN(C)C(=O)NC2CCCCC2)OCCCC[C@H](C)Oc2ccc(NC(=O)Nc3ccc4c(c3)OCO4)cc2C1=O
    -16 | 16[16.7 µM]
C[C@H]1CN([C@@H](C)CO)S(=O)(=O)c2ccc(C#CC3(O)CCCC3)cc2O[C@H]1CN(C)C(=O)Nc1ccc(F)cc1
    13 | -45[16.7 µM]
Cc1noc(C)c1NC(=O)N(C)C[C@H]1OCCCC[C@H](C)Oc2ccc(NS(C)(=O)=O)cc2C(=O)N([C@H](C)CO)C[C@@H]1C
    -4 | 3[16.7 µM]
O=C(c1cc(-c2ccccc2)nc2ccccc12)N1CCN(C2CCS(=O)(=O)C2)CC1 (configuration not stated)
    -14 | 2
C[C@@H]1CN([C@H](C)CO)S(=O)(=O)c2ccc(C#CC3CC3)cc2O[C@H]1CN(C)Cc1cccc(F)c1
    -2 | 9[16.7 µM]
O=C(C[C@@H]1C[C@@H]2c3cc(NC(=O)c4cccnc4)ccc3O[C@@H]2[C@H](CO)O1)NCc1ccc(Oc2ccccc2)cc1
    -19 | 3[16.7 µM]
Cc1ccc(S(=O)(=O)N(C)C[C@@H]2OCCCC[C@H](C)Oc3ccc(NC(=O)Nc4ccccc4)cc3C(=O)N([C@@H](C)CO)C[C@@H]2C)cc1
    -8 | 22[16.7 µM]
C[C@H]1CN([C@@H](C)CO)C(=O)Cc2cc(NC(=O)NC3CCCCC3)ccc2O[C@H]1CN(C)C(=O)Nc1cccc2ccccc12
    10 | 4[16.7 µM]
CC(C)NC(=O)Nc1ccc2c(c1)C(=O)N(C)[C@@H]1CC[C@@H](CC(=O)Nc3ccccc3)O[C@@H]1CO2
    0 | -7[16.7 µM]
O=C(Nc1ccccc1F)N[C@@H]1CC[C@@H](CC(=O)N2CCCCC2)O[C@@H]1CO
    -8 | -13[16.7 µM]
C[C@H]1CN([C@@H](C)CO)C(=O)Cc2cc(NS(=O)(=O)c3ccc(Cl)cc3)ccc2O[C@H]1CN(C)S(=O)(=O)c1cn(C)cn1
    3 | -5[16.7 µM]
CCC(=O)Nc1ccc2c(c1)OC[C@H](C)N(Cc1cccc(F)c1)C[C@@H](C)[C@@H](OC)CN(C)C2=O
    -8 | 0[16.7 µM]
O=C(C[C@H]1C=C[C@@H](NC(=O)CCN2CCCCC2)[C@H](CO)O1)NCc1ccc(Cl)c(Cl)c1
    -6 | -4[16.7 µM]
C[C@@H]1CCCCO[C@@H](CN(C)C)[C@H](C)CN([C@@H](C)CO)C(=O)c2cc(NS(=O)(=O)c3ccc(Cl)cc3)ccc2O1
    23 | -8[16.7 µM]
CC(C)CC#Cc1ccc2c(c1)O[C@H](CN(C)Cc1cncnc1)[C@@H](C)CN([C@H](C)CO)S2(=O)=O
    4 | 2[16.7 µM]
C[C@H](CO)N1C[C@H](C)[C@H](CN(C)C(=O)Nc2ccc(C(F)(F)F)cc2)OCCCC[C@H](C)Oc2ccc(NC(=O)c3ccncc3)cc2C1=O
    -7 | 1[16.7 µM]
C[C@@H]1CN([C@H](C)CO)C(=O)c2cc(N(C)C)ccc2O[C@H]1CN(C)C(=O)Nc1ccc(F)cc1
    0 | -11[16.7 µM]
O=C(Nc1ccccc1F)N[C@@H]1C=C[C@H](CC(=O)N2CCCCC2)O[C@H]1CO
    -4 | -32[16.7 µM]
O=C(C[C@H]1C=C[C@@H](NC(=O)c2cccc(F)c2)[C@H](CO)O1)NCCN1CCCC1
    9 | 14[16.7 µM]
O=C(C[C@@H]1C=C[C@@H](NC(=O)c2ccccc2)[C@H](CO)O1)NCCc1ccncc1
    0 | 8[16.7 µM]
CCS(=O)(=O)NCC[C@@H]1CC[C@@H](NS(=O)(=O)c2cccc(Cl)c2)[C@@H](CO)O1
    -12 | 6[16.7 µM]
Cc1ccc(S(=O)(=O)N[C@@H]2CC[C@H](CCNC(=O)Cc3ccccn3)O[C@H]2CO)cc1
    -3 | 7[16.7 µM]
O=C(C[C@@H]1CC[C@H](NC(=O)Nc2cc(F)ccc2F)[C@H](CO)O1)NCc1ccccn1
    -14 | -9[16.7 µM]
CO[C@@H]1CN(C)C(=O)c2ccc(NC(=O)Nc3cccc(Cl)c3)cc2OC[C@@H](C)NC[C@H]1C
    -1 | 10[16.7 µM]
C[C@H]1CN([C@@H](C)CO)C(=O)c2cc(-c3ccc(F)cc3)cnc2O[C@H]1CN(C)C(=O)Nc1ccccc1F
    -6 | 0[16.7 µM]
O=C(Nc1ccc2c(c1)[C@H]1C[C@@H](CC(=O)N3CCOCC3)O[C@H](CO)[C@H]1O2)C1CCOCC1
    2 | 5[16.7 µM]
Cc1noc(C)c1S(=O)(=O)N(C)C[C@@H]1Oc2ccc(NS(=O)(=O)c3cn(C)cn3)cc2CC(=O)N([C@H](C)CO)C[C@@H]1C
    -13 | 0[16.7 µM]
Cc1noc(C)c1NC(=O)Nc1ccc2c(c1)C(=O)N([C@@H](C)CO)C[C@H](C)[C@H](CN(C)Cc1ccc(Cl)c(Cl)c1)O2
    -7 | -214[16.7 µM]
C[C@@H](NC(=O)C[C@@H]1C[C@H]2c3cc(NS(C)(=O)=O)ccc3O[C@H]2[C@@H](CO)O1)c1ccccc1
    -12 | -6[16.7 µM]
C[C@@H]1CN([C@H](C)CO)C(=O)Cc2cc(NC(=O)C3CC3)ccc2O[C@H]1CN(C)S(=O)(=O)c1cccs1
    -26 | -27[16.7 µM]
O=C(NCC[C@H]1CC[C@H](NS(=O)(=O)c2cccc(F)c2)[C@H](CO)O1)C1CC1
    9 | -7[16.7 µM]
C[C@H]1CN([C@@H](C)CO)C(=O)c2cc(/C=C/c3ccccc3)cnc2O[C@H]1CN(C)C(=O)CN(C)C
    4 | -5[16.7 µM]
C[C@@H]1CCCCO[C@@H](CN(C)C(=O)Nc2ccccc2)[C@@H](C)CN([C@@H](C)CO)C(=O)c2cc(NC(=O)Nc3ccc4c(c3)OCO4)ccc2O1
    0 | -13[16.7 µM]
O=C(C[C@@H]1CC[C@H](NC(=O)C2CC2)[C@@H](CO)O1)NCC1CC1
    19 | 8[16.7 µM]
C[C@H]1CN([C@@H](C)CO)C(=O)Cc2cc(NC(=O)Cn3cnnn3)ccc2O[C@H]1CN(C)Cc1ccc(Oc2ccccc2)cc1
    10 | -20[16.7 µM]
C[C@H](CO)N1C[C@H](C)[C@@H](CN(C)S(=O)(=O)c2cn(C)cn2)OCCCC[C@H](C)Oc2ccc(N(C)C)cc2C1=O
    -12 | 11[16.7 µM]
CCCNC(=O)N[C@@H]1CC[C@H](CC(=O)N2CCN(C)CC2)O[C@H]1CO
    -16 | -5[16.7 µM]
C[C@H](CO)N1C[C@H](C)[C@@H](CN(C)C(=O)Nc2ccccc2)Oc2ncc(C#CC3CC3)cc2C1=O
    9 | 2[16.7 µM]
COc1ccc(S(=O)(=O)N(C)C[C@@H]2Oc3ccc(NC(=O)NC(C)C)cc3CC(=O)N([C@@H](C)CO)C[C@@H]2C)cc1
    34 | 2[16.7 µM]
C[C@H]1CN([C@@H](C)CO)C(=O)c2cc(-c3ccc(F)cc3)cnc2O[C@@H]1CN(C)C(=O)NC1CCCC1
    1 | 6[16.7 µM]
COc1ccc(NC(=O)Nc2ccc3c(c2)C(=O)N([C@@H](C)CO)C[C@@H](C)[C@@H](CN(C)C)OCCCC[C@@H](C)O3)cc1
    -2 | 1[16.7 µM]
C[C@H](CO)N1C[C@H](C)[C@@H](CN(C)S(=O)(=O)c2cn(C)cn2)Oc2c(NS(=O)(=O)c3ccc(Cl)cc3)cccc2C1=O
    -2 | -3[16.7 µM]
CCC(=O)N(C)C[C@@H]1Oc2cc(-c3ccccc3C)ccc2S(=O)(=O)N([C@H](C)CO)C[C@H]1C
    12 | 21[16.7 µM]
Cc1ccc(S(=O)(=O)Nc2cccc3c2O[C@H](CN(C)C(=O)NC2CCCCC2)[C@@H](C)CN([C@H](C)CO)C3=O)cc1
    14 | -11[16.7 µM]
Cc1ccc(S(=O)(=O)Nc2ccc3c(c2)C(=O)N([C@H](C)CO)C[C@H](C)[C@@H](CN(C)Cc2ccc(Cl)c(Cl)c2)OCCCC[C@@H](C)O3)cc1
    -13 | -21[16.7 µM]
N#C[C@@H]1[C@H](c2ccc(C#Cc3ccccc3F)cc2)[C@H](CO)N1C(=O)C1CC1
    -5 | -7[16.7 µM]
C[C@H]1CN([C@@H](C)CO)C(=O)c2cc(NS(=O)(=O)c3cccs3)ccc2O[C@@H]1CN(C)C(=O)Nc1ccccc1
    -10 | 12[16.7 µM]
CCS(=O)(=O)NCC[C@H]1CC[C@H](NS(=O)(=O)c2cccc(F)c2)[C@H](CO)O1
    16 | -7[16.7 µM]
CC(C)NC(=O)N(C)C[C@H]1Oc2cc(C#CC(C)(C)O)ccc2S(=O)(=O)N([C@@H](C)CO)C[C@H]1C
    -2 | -13[16.7 µM]
COc1cccc(CNC(=O)C[C@H]2CC[C@@H](NC(=O)C3CCC3)[C@@H](CO)O2)c1
    -18 | -6[16.7 µM]
C[C@H]1CN([C@@H](C)CO)S(=O)(=O)c2ccc(-c3cccnc3)cc2O[C@@H]1CN(C)C(=O)CC1CC1
    14 | -5[16.7 µM]

# Sorted by molecular weight (largest number first): 9 of the compounds above
# Screens in order: UUG fidelity | HIV Env fusion
C[C@H](CO)N1C[C@H](C)[C@@H](CN(C)S(=O)(=O)c2cn(C)cn2)Oc2c(NS(=O)(=O)c3ccc(Cl)cc3)cccc2C1=O
    -2 | -3[16.7 µM]
C[C@H]1CN([C@@H](C)CO)C(=O)Cc2cc(NC(=O)Cn3cnnn3)ccc2O[C@H]1CN(C)Cc1ccc(Oc2ccccc2)cc1
    10 | -20[16.7 µM]
COc1ccc(NC(=O)Nc2ccc3c(c2)C(=O)N([C@@H](C)CO)C[C@@H](C)[C@@H](CN(C)C)OCCCC[C@@H](C)O3)cc1
    -2 | 1[16.7 µM]
C[C@H]1CN([C@@H](C)CO)C(=O)c2cc(-c3ccc(F)cc3)cnc2O[C@@H]1CN(C)C(=O)NC1CCCC1
    1 | 6[16.7 µM]
CC(C)NC(=O)N(C)C[C@H]1Oc2cc(C#CC(C)(C)O)ccc2S(=O)(=O)N([C@@H](C)CO)C[C@H]1C
    -2 | -13[16.7 µM]
C[C@H](CO)N1C[C@H](C)[C@@H](CN(C)C(=O)Nc2ccccc2)Oc2ncc(C#CC3CC3)cc2C1=O
    9 | 2[16.7 µM]
CCC(=O)N(C)C[C@@H]1Oc2cc(-c3ccccc3C)ccc2S(=O)(=O)N([C@H](C)CO)C[C@H]1C
    12 | 21[16.7 µM]
N#C[C@@H]1[C@H](c2ccc(C#Cc3ccccc3F)cc2)[C@H](CO)N1C(=O)C1CC1
    -5 | -7[16.7 µM]
CCCNC(=O)N[C@@H]1CC[C@H](CC(=O)N2CCN(C)CC2)O[C@H]1CO
    -16 | -5[16.7 µM]

# Continued.
# Screens in order: UUG fidelity | HIV Env fusion
Cc1ccc(S(=O)(=O)N[C@H]2CC[C@@H](CC(=O)O)O[C@@H]2CO)cc1
    4 | 10[16.7 µM]
O=C(CN1CCOCC1)N[C@@H]1CC[C@H](CCn2cc(C3CC3)nn2)O[C@@H]1CO
    6 | 12[16.7 µM]
Cc1noc(C)c1NC(=O)Nc1ccc2c(c1)C(=O)N([C@H](C)CO)C[C@H](C)[C@H](CN(C)C(=O)Nc1cccc3ccccc13)OCCCC[C@@H](C)O2
    9 | 1[16.7 µM]
COCCNC(=O)C[C@@H]1CC[C@H]2[C@@H](COC[C@@H](O)CN2S(=O)(=O)c2ccccc2F)O1
    -6 | 7[16.7 µM]
C[C@@H]1CN([C@@H](C)CO)C(=O)Cc2cc(NC(=O)Nc3cccc4ccccc34)ccc2O[C@@H]1CN(C)C(=O)Nc1ccc2c(c1)OCO2
    1 | -3[16.7 µM]
Cc1noc(C)c1NC(=O)N(C)C[C@@H]1Oc2ncc(C#Cc3ccc(F)cc3)cc2C(=O)N([C@H](C)CO)C[C@@H]1C
    19 | -4[16.7 µM]
C[C@H]1CN([C@@H](C)CO)S(=O)(=O)c2ccc(-c3cccc(C#N)c3)cc2O[C@@H]1CN(C)C(=O)Nc1ccccc1F
    -7 | 9[16.7 µM]
O=C1c2ccccc2C(=O)N1CC1CCN(Cc2ccc(OCCO)cc2)CC1
    -6 | -6[16.7 µM]
C/C=C/c1cnc2c(c1)C(=O)N([C@@H](C)CO)C[C@@H](C)[C@@H](CN(C)C(=O)c1cccnc1)O2
    0 | -43[16.7 µM]

# Assay outcomes: PubChem, Broad Institute

# This is a subset; the hit share may differ from the screen's.
